Assay outcomes from PubChem.
Vaccinia mCherry: vaccinia inhibition (mCherry reporter); Potency, µM (top dose mostly 36.5 µM), for inactives: at the highest dose activity change, negative = inhibition, usual class: inhibitors; Vaccinia virus mCherry reporter infection, fluorescence; about a quarter of the inactives have no number; 310,000 tested, 0.63% active; AID 720579; active = well fitted inhibition curve with a large enough effect; inconclusive = small, poorly fitted or top-dose-only effect; inactive = no such curve, though single readings can be large or run the other way; tested in A549 cells; note: nearly all actives have a fitted effect of over 35% in size; inactives centre near -10
Vaccinia Venus: inhibitors of vaccinia virus (Venus reporter); Vaccinia virus Venus reporter expression, fluorescence; Potency, µM (top dose mostly 36.5 µM), for inactives: at the top dose activity change, negative = inhibition, actives largely listed as inhibitors; 330,000 tested, 0.46% active; AID 720580; active means well fitted inhibition curve with a large enough effect; inconclusive means small, poorly fitted or top-dose-only effect; inactive means no such curve, though single readings can be large or run the other way; tested in A549 cells; note: nearly all actives have a fitted effect of over 30% in size; inactives centre near -10
* marks the source's active call; other numbers are inactive results; i = inactive; ? = inconclusive; · = no result given; & = joins results of further samples; [ ] = dose if it differs, or a comment. % is set by controls: 0 for no effect and ±100 for the full control effect; potency is the fitted concentration of half-maximal effect.

SMILES | Vaccinia mCherry | Vaccinia Venus
Cc1cc(O)c(/C=N/Nc2cccc(Cl)c2)c(=O)o1 | -17.4% | -11.6%
O=C(Nc1ccc(Cl)cc1C(=O)NCC1CCCO1)c1ccc(Cl)cc1Cl (stereo not given) | i | -13.1%
CN(CC(=O)Nc1ccc(S(=O)(=O)N2CCCC2)cc1)CC(=O)Nc1cccc(F)c1 | -24.5% | -25.9%
Cc1ccccc1SCC(=O)Nc1cc(S(=O)(=O)N2CCOCC2)ccc1N1CCOCC1 | -17.8% | -10.4%
COc1cccc(-c2cc(=O)[nH][nH]2)c1 | -6.7% | 2.3%
CN(C)S(=O)(=O)N1CCN(c2ccccc2Cl)CC1 | -6.7% | -8.7%
COC(=O)c1sccc1NC(=O)c1cccc(OC)c1 | i | -2.6%
Cc1ccc(-c2nnc(-c3ccccc3S(=O)(=O)Cc3ccc(Cl)cc3)o2)cc1 | · | 11.4%
CCOC(=O)C(Cc1ccccc1)C(=O)c1ccco1 (stereo not given) | i | -4.9%
COc1cccc(NC(=S)NCc2ccc3c(c2)cc(C)n3C)c1 | -8.6% | -26.5%
COc1cccc(/C=N/NC(=O)c2cc(C34CC5CC(CC(C5)C3)C4)[nH]n2)c1 | · | -23.9%
Cc1ccc2ccc3cc(C(=O)N4CCN(c5ccccc5F)CC4)nc3c2[nH]1 | -2.7% | -1.5%
COc1ccccc1N(C)S(=O)(=O)c1ccc(C(=O)N(C)Cc2ccc(Cl)s2)cc1 | ? | -24.7%
CCc1ccc2nc(SCC(=O)NCC3CCCO3)c(C#N)cc2c1 (stereo not given) | -3.6% | 1.1%
COc1ccc(CC(=O)Nc2c(C(=O)N3CCN(c4ccccc4)CC3)oc3ccccc23)cc1OC | -12.6%&-15.9% | -0.7%&-12.8%
CC(C)c1ccc(C2OCC(C)([N+](=O)[O-])CO2)cc1 (stereo not given) | i | -7.2%
CCOc1cc(/C=N\NC(=O)CN2CCOCC2)ccc1OCc1ccc(F)cc1 | -0.6% | -0.5%
CCCc1cc(C(=O)Nc2c(C)nn(Cc3c(Cl)cccc3Cl)c2C)no1 | -6.7% | -0.1%
COc1cccc(NC(=S)N(C)C2CCN(C)CC2)c1 | i | -8.1%
O=C(Nc1ccccc1Cl)Nc1ccccc1Cl | -5.0% | -3.1%
COc1cc(CCN(C(=O)c2cc3ccccc3[nH]2)C(c2ccccn2)c2nc3ccccc3[nH]2)cc(OC)c1 (stereo not given) | 10.1% | -2.3%
COc1ccc(NC(=O)COc2ccccc2C(=O)NCC(c2ccccc2)N(C)C)cc1Cl (stereo not given) | -15.8% | -14.2%
COc1ccc(NC(=O)N2CCc3ccccc3C2)cc1 | -6.3% | -13.7%
O=C(CSc1ncnc2c1nnn2Cc1ccc(F)cc1)NC1CCCC1 | i | -10.7%
Nc1nc(-c2ccccc2)c(-c2ccc([N+](=O)[O-])cc2)s1 | 22.4µM* | ?
O=C(NC(=S)NCCSc1ccccc1)c1cccnc1 | -17.5% | -15.5%
CCOC(=O)C1CCCN(C(=O)c2ccc(Cn3c(=S)[nH]c4cc(C(=O)OC)ccc4c3=O)cc2)C1 (stereo not given) | i | 8.4%
COC(=O)[C@@H](NC(=O)C1CCCN(c2nc(C)c3ccc(C)cc3n2)C1)C(C)C (stereo not given in full) | -12.3% | -3.5%
COc1ccc(NS(=O)(=O)c2cccc(NC(=O)c3ccc(S(=O)(=O)N4CCCCCC4)cc3)c2)cc1 | ? | ?
CC(C)(C)NC(=O)c1ccccc1NC(=O)C1CCCO1 (stereo not given) | i | -9.5%
Cc1cc(C)cc(N2C(=O)CSC23C(=O)N(CC(=O)NC2CCCCC2)c2ccccc23)c1 (stereo not given) | -15.2% | -15.4%
C=CCNS(=O)(=O)c1ccc(OCC(=O)OC)cc1 | -13.1% | -6.3%
Cc1ccc(S(=O)(=O)Nc2c3ccccc3nc(=O)n2-c2ccccc2)cc1 | -6.5% | -3.4%
COc1ccc(N2CCN(C(=O)CCCn3c(=O)[nH]c4ccsc4c3=O)CC2)cc1 | i | -16.3%
COc1cccc(-n2c(SCC(=O)NCc3cccs3)nc3ccccc3c2=O)c1 | i | -11.9%
CN(CCc1ccccn1)C(=S)Nc1cccc(S(=O)(=O)N(C)C)c1 | -2.9% | -7.6%
CCOC(=O)c1c(C)n(CCOC)c2ccc(O)cc12 | -16.4% | 5.4%
CCOC(=O)c1ccc(NC(=S)N2CCN(CCNC3=CC(=O)CC(C)(C)C3)CC2)cc1 | i | -13.3%
COCCn1ccc2c(OCC(=O)Nc3cccc(C(F)(F)F)c3)cccc2c1=O | -6.9% | -1.0%
C/C(=N\NC(=S)NC1CCCCC1)c1ccc(OC(F)F)cc1OC(F)F | -18.8% | -11.9%
CCOC(=O)c1cccc(NC(=O)c2ccc3c(c2)nnn3CC)c1 | 6.7% | 5.3%
Cc1ccc(-c2nc3ccccc3c(=O)n2CCCn2ccnc2)cc1 | i | 0.6%
CCOc1ccc(-c2ccc(/C=C3/C(=N)N4C=CSC4=NC3=O)o2)c([N+](=O)[O-])c1 | i | -3.1%
C=CCN(Cc1cccc(OC)c1OC)S(=O)(=O)N(C)C | -9.3% | -1.0%
Cc1ccc(CNC(=O)Cc2noc3ccccc23)cc1 | -15.4% | -10.3%
CC(=O)N1CCN(c2ccc(NC(=O)c3ccc4c(c3)OCCO4)cc2Cl)CC1 | i | -11.7%
O=C(CCc1ccc(S(=O)(=O)N2CCOCC2)cc1)Nc1nccs1 | · | -12.1%
O=C(COC(=O)c1c(Cl)cccc1Cl)Nc1cc(Cl)ccc1Oc1ccccc1 | i | 2.6%
COCCNC(=S)N(Cc1cc2cc(C)ccc2n2nnnc12)C1CCCC1 | i | -1.1%
COCC(C)n1c(SCC(=O)Nc2cc(C)on2)nc2ccccc2c1=O (stereo not given) | -28.6% | -15.1%
Cc1cccc(C)c1N(Cc1ccccc1F)S(C)(=O)=O | -12.3% | -6.3%
CC(C)Oc1ccc(C(CC(=O)O)n2cnnn2)cc1 (stereo not given) | -16.2% | -4.0%
Cn1ncc(N=Cc2ccccc2)c1C(N)=O | · | 2.1%
C[C@H]1CN([C@@H](C)CO)C(=O)CCCn2nncc2CO[C@@H]1CN(C)Cc1cccc(C(F)(F)F)c1 | -10.1% | -20.6%
O=S(=O)(Nc1ccc(O)c2ccccc12)c1ccc(OC(F)(F)F)cc1 | -9.4% | 5.9%
CCOC(=O)C1C(c2ccccc2)C(C(=O)OCC)S(=O)(=O)C(CCN(CC)CC)S1(=O)=O (stereo not given) | i | -0.7%
Cc1ccc(OCC(=O)Nc2cc(S(=O)(=O)N3CCOCC3)ccc2N2CCCC2)cc1 | i | -19.4%
O=C1[C@@H]2CSCN2C(=O)CN1Cc1ccccc1F | -9.4% | 4.6%
COc1ccc(C)cc1-n1c(N)c(C#N)c(C#N)c1-c1ccc(OC)c(OC)c1OC | · | -13.7%
O=C(c1cccc(C(F)(F)F)c1)N1CCN(CCc2ccccc2)CC1 | -10.9% | 14.8%

Single values from the results shown.
Under Vaccinia mCherry, CC(C)Oc1ccc(C(CC(=O)O)n2cnnn2)cc1 (stereo not given) reads -16.2%
Under Vaccinia Venus, O=C(c1cccc(C(F)(F)F)c1)N1CCN(CCc2ccccc2)CC1 reads 14.8%
Under Vaccinia Venus, O=C1[C@@H]2CSCN2C(=O)CN1Cc1ccccc1F reads 4.6%
Under Vaccinia Venus, O=C(COC(=O)c1c(Cl)cccc1Cl)Nc1cc(Cl)ccc1Oc1ccccc1 reads 2.6%
Under Vaccinia mCherry, Cc1cccc(C)c1N(Cc1ccccc1F)S(C)(=O)=O reads -12.3%

Carrying on:
SMILES | Vaccinia mCherry | Vaccinia Venus
CN(C)C(CNC(=O)CCc1nc2sc3c(c2c(=O)[nH]1)CCCC3)c1ccccc1 (stereo not given) | -17.0% | -16.7%
Cc1ccccc1NC(=O)C(=O)NCC1(c2ccccc2)CCCC1 | -0.5% | -10.7%
CCc1ccc(NC(=O)Cc2ccc(NC3=NC4CS(=O)(=O)CC4S3)cc2)cc1 (stereo not given) | 42.3%[activator] | 0.6%
C#CCOc1nc(OCC#C)nc(OCC#C)n1 | i | -11.2%
Cc1ccc(O)c(NC(=O)c2cc(-c3ccccc3)on2)c1 | -25.6% | -23.7%
Cc1ccc(CSCC(=O)N(C)CC(=O)Nc2c(Cl)cccc2Cl)cc1 | -6.9% | -0.2%
CC(OC(=O)C1CCN(S(=O)(=O)c2ccc(F)cc2)CC1)C(=O)NC1CCCCC1C (stereo not given) | i | -13.0%
COCCC(=O)N1CCC(Oc2ccc(C(=O)NCc3nccn3C)cc2)CC1 | i | -6.2%
NC(=O)c1ccc(Oc2ccc(-c3nnco3)cc2)c([N+](=O)[O-])c1 | -20.5% | -21.0%
O=C(NCCc1ccc(O)cc1)c1[nH]c(C(F)(F)F)nc1-c1ccccc1 | -0.2% | 2.3%
CC(C)(C)C(=O)OCc1ccc(C2=CC(=O)CC(C)(C)C2=O)cc1 | i | -7.1%
CCc1cccc(C)c1N(C(=O)Cn1c(CO)nc2ccccc21)C(C)COC (stereo not given) | -19.5% | -5.2%
CC(=O)N1CCN(C)CC1 | -5.9% | -5.7%
COc1cc(C(=O)NN=Cc2ccc(N(C)C)cc2)cc(OC)c1OC | -18.4% | ?
O=[N+]([O-])c1ccc(N2CCN(Cc3ccc4c(c3)OCO4)CC2)nc1 | ? | -14.1%
Cc1ccc(F)c(S(=O)(=O)NC(=O)C2(C)CCN2C(=O)c2ccco2)c1 (stereo not given) | i | 5.0%
O=C(O)C1CC=CCC1C(=O)N1CCN(c2nc(-c3ccccc3)c3ccccc3n2)CC1 (stereo not given) | -22.0% | -9.0%
COC(=O)c1scc(C)c1NC(=O)Nc1ccccc1 | · | -4.2%
Cc1cccc(/C=C2\Sc3ccc(C(=O)N4CCC(C)CC4)cc3N(C)C2=O)c1 | i | -10.3%
O=C(Nc1cccnc1)c1ccc(F)c(S(=O)(=O)N2CCOCC2)c1 | -15.8% | -6.3%
Cc1cccc(NC(=S)NNC(=O)CC(C)O)c1C (stereo not given) | -24.7% | -12.3%
COC(=O)c1ccc(S(=O)(=O)N2C3CCC2CC(NC(=O)C2CC2)C3)cc1 (stereo not given) | -10.6% | -11.4%
CC(=O)N1CCN(S(=O)(=O)c2cccc(C(=O)NNC(=O)COc3ccc(Cl)cc3C)c2)CC1 | i | -1.7%
O=C(NCc1ccco1)c1cc(-c2ccc3c(c2)OCO3)on1 | -15.9% | -26.4%
COc1ccc2c(C)c(CCC(=O)NCCc3ccccc3OC)c(=O)oc2c1 | -2.5% | -0.4%
FC(F)(F)c1ccccc1Cc1c(-c2ccccc2)nc2ccc(Br)cn12 | -4.3% | -1.0%
CC(=O)Nc1ccc(NC(=O)c2ncoc2-c2ccco2)cc1 | -4.9% | 9.7%
CC1Nc2ncnc(N3CCOCC3)c2N(Cc2ccc(Cl)cc2)C1=O (stereo not given) | -4.1% | -27.4%
O=S1(=O)N=C2CCCCCN2C(c2ccccc2)N1 (stereo not given) | i | -9.9%
O=C(NC(=S)Nc1ccc(Cl)cn1)C(c1ccccc1)c1ccccc1 | · | -3.0%

Part of the list above, as tab-separated lines:
SMILES	Vaccinia mCherry	Vaccinia Venus
Cc1ccc(F)c(S(=O)(=O)NC(=O)C2(C)CCN2C(=O)c2ccco2)c1 (stereo not given)	i	5.0%
Cc1cccc(/C=C2\Sc3ccc(C(=O)N4CCC(C)CC4)cc3N(C)C2=O)c1	i	-10.3%
CC(=O)N1CCN(S(=O)(=O)c2cccc(C(=O)NNC(=O)COc3ccc(Cl)cc3C)c2)CC1	i	-1.7%
COC(=O)c1ccc(S(=O)(=O)N2C3CCC2CC(NC(=O)C2CC2)C3)cc1 (stereo not given)	-10.6%	-11.4%

Whole records, looked up by structure:
COC(=O)c1ccc(S(=O)(=O)N2C3CCC2CC(NC(=O)C2CC2)C3)cc1 (stereo not given) as listed: Vaccinia mCherry = -10.6%; Vaccinia Venus = -11.4%
CC1Nc2ncnc(N3CCOCC3)c2N(Cc2ccc(Cl)cc2)C1=O (stereo not given) as listed: Vaccinia mCherry = -4.1%; Vaccinia Venus = -27.4%

(more compounds)
SMILES | Vaccinia mCherry | Vaccinia Venus
COc1ccc(OC)c(NC(=O)N2CCCC(C(=O)c3ccccc3OC)C2)c1 (stereo not given) | i | -1.5%
COC(=O)c1c(NC(=O)CCS(=O)(=O)c2ccccc2)sc2c1CCN(C)C2 | ? | ?
Clc1ccc(CNC2CCCC2)cc1 | -1.2% | 8.5%
O=C(C1CCC1)N1CCc2cc(S(=O)(=O)NCC3COc4ccccc4O3)ccc21 (stereo not given) | -12.7% | -17.3%
O=C(CCNC(=O)c1ccccc1)Oc1ccc([N+](=O)[O-])cc1 | -14.3% | -18.8%
Cc1ccc(C(=O)CC2(O)C(=O)N(C)c3ccccc32)o1 (stereo not given) | i | -7.8%
COc1cc([N+](=O)[O-])ccc1-c1ccc(/C=N/NC(N)=O)o1 | -10.2% | 8.2%
CCOC(=O)[C@H]1[C@H]2COc3cc(OC)ccc3[C@@H]2N2C(=O)CN(Cc3ccc(C)cc3)C(=O)[C@@]12C | i | -6.8%
CCOc1cc(S(=O)(=O)n2ccnc2C(C)C)ccc1Cl | -2.2% | -5.5%
CCC(C)NC(=O)c1ccccc1NC(=O)CN1C(=O)c2cccc3cccc1c23 (stereo not given) | 24.5% | 17.1%
COC(=O)Cn1c(=O)oc2ccc(C)cc21 | -6.2% | -3.4%
CCOC(=O)c1sc(N(Cc2ccccc2)C(=O)COC(=O)c2ccc(O)cc2)nc1C | i | ?
C/C(Cc1ccccc1)=N\NC(=O)CNC(=O)c1ccc(Cl)cc1 | i | -3.7%
CCSc1nn2c(=O)c3ccccc3nc2s1 | · | -12.3%
CCCCNC(=O)C(NC(=O)c1ccccc1)C(=O)c1ccccc1 (stereo not given) | -9.1% | -16.2%
Cc1ccc(NS(=O)(=O)c2cnc(N)nc2)c(C)c1 | -11.6% | -8.5%
